# VACV mCherry inh: inhibitors of vaccinia virus infection (mCherry reporter signal). Potency, µM (series often up to 36.5 µM), without a hit: at the highest dose activity change, negative = inhibition, hits mostly inhibitors. Vaccinia virus mCherry reporter infection, fluorescence; about a quarter of the inactives have no number. 310,000 tested, 0.63% active; active = well fitted inhibition curve with a large enough effect; inconclusive = small, poorly fitted or top-dose-only effect; inactive = no such curve, though single readings can be large or run the other way; tested in A549 cells; further: nearly all actives have a fitted effect of over 35% in size; inactives centre near -10
# VACV Venus inh: vaccinia inhibition (Venus reporter); 330,000 tested, 0.46% active; Potency, µM (series often up to 36.5 µM), inactives show top-dose activity change, negative = inhibition, most hits filed as inhibitors; Vaccinia virus Venus reporter expression, fluorescence; active means well fitted inhibition curve with a large enough effect; inconclusive means small, poorly fitted or top-dose-only effect; inactive means no such curve, though single readings can be large or run the other way; tested in A549 cells; further: nearly all actives have a fitted effect of over 30% in size; inactives centre near -10
# Numbers without * were called inactive; i = inactive; ? = inconclusive; / = no result given; [ ] = dose if it differs, or a comment. On the % scale 0 is the no-effect control and ±100 the full control effect; potency means the concentration at half of the fitted maximal effect.
# A first look (four entries):
# Order of values: VACV mCherry inh | VACV Venus inh
> Cc1nc(SCc2ccccc2F)c2oc3ccccc3c2n1
→ i | -12.4%
> Cc1[nH]nc(SCC(=O)N2CCCCCC2)c1[N+](=O)[O-]
→ i | -16.9%
> OCC1OC(Nc2ccccc2C=NO)C(O)C1O (stereo not drawn)
→ i | 0.4%
> O=c1cc(-c2ccccc2)nc(Sc2ccc([N+](=O)[O-])cc2[N+](=O)[O-])[nH]1
→ -16.6% | -4.1%

# The whole of this part, previewed entries included:
# Order of values: VACV mCherry inh | VACV Venus inh
> Cc1nc(SCc2ccccc2F)c2oc3ccccc3c2n1
→ i | -12.4%
> Cc1[nH]nc(SCC(=O)N2CCCCCC2)c1[N+](=O)[O-]
→ i | -16.9%
> OCC1OC(Nc2ccccc2C=NO)C(O)C1O (stereo not drawn)
→ i | 0.4%
> O=c1cc(-c2ccccc2)nc(Sc2ccc([N+](=O)[O-])cc2[N+](=O)[O-])[nH]1
→ -16.6% | -4.1%
> COc1ccc(CCn2c(C)nc3c(c(=O)c4ccccc4n3C)c2=O)cc1
→ -14.7% | -7.9%
> Cn1c(C(=O)NCCN2CCOCC2)cc2c(=O)n(C)c3ccccc3c21
→ -3.4% | -8.3%
> COc1ccc(C(NC(=O)C2CCN(Cc3ccc(Oc4ccccc4)cc3)CC2)c2ccccc2C)cn1 (stereo not drawn)
→ ? | -29.6%
> CCN(Cc1nc(-c2ccc(OC)c(OC)c2)no1)C(=O)c1ccc2c(c1)OCO2
→ -13.3% | -2.6%
> CCc1nc(N)c(C#N)c(-c2ccco2)c1C
→ i | -6.5%
> CCOC(=O)c1ccc(-n2c(C)nc3ccc(Br)cc3c2=O)cc1
→ -10.8% | -7.6%
> COc1ccc(-c2nc(CN3CCN(C(=O)c4ccco4)CC3)c(C)o2)c(OC)c1C
→ ? | -25.9%
> CN(C)CCCN(C(=O)c1ccc(Br)s1)c1nc2ccc(F)cc2s1
→ -18.9% | -9.2%
> CCc1cc(=O)oc2cc(OS(C)(=O)=O)ccc12
→ -19.1% | -13.5%
> CC1(C)CN2C(=S)N(c3ccccc3)C(c3ccccc3)N2C1 (stereo not drawn)
→ -2.9% | -7.5%
> Cc1ccccc1C(=O)Nc1c(C(=O)Nc2cccc(F)c2)oc2ccccc12
→ 2.8% | -1.8%
> CCOC(=O)c1cc(C)n(CC2CCC(C(=O)Nc3cccc(C)c3)CC2)c1C (stereo not drawn)
→ -2.4% | -6.3%
> Cc1ccc(-c2nnc(Nc3cccc(Br)c3)c3ccccc23)cc1S(=O)(=O)N1CCN(C)CC1
→ -28.7% | ?
> CCN(CC)C(=O)Cn1cc(C(=O)C(=O)Nc2ccc3c(c2)OCCO3)c2ccccc21
→ -10.5% | -16.6%
> COc1ccc2cc(C(=O)Nc3ccc(F)cc3)sc(=O)c2c1OC
→ -8.3% | -1.3%
> COCCCNc1ncnc2onc(-c3ccc(F)cc3)c12
→ -6.8% | 0.5%
> O=C(N/N=C/c1ccc(F)cc1)c1cc(-c2ccc3c(c2)OCO3)n[nH]1
→ -10.4%[7.34 µM] | -19.7%[7.34 µM]
> COc1cccc(-n2c(=O)c3c(C)c(C(=O)N(C)C)sc3n(CC(=O)NCC3CCCO3)c2=O)c1 (stereo not drawn)
→ -4.5% | -7.5%
> C/C(=N/NC(=O)CNC(=O)Cc1ccccc1)c1ccc(Cl)cc1
→ i | -25.0%
> Cc1cc(-c2ccnc(-n3ncc(C(=O)NCC4COCCO4)c3C3CC3)n2)c(C)s1 (stereo not drawn)
→ -9.1% | -20.8%
> CN(Cc1ccccc1)C(=O)COc1cc(=O)n(C)c2ccccc12
→ -26.4% | ?
> COC(=O)C1=C(N)Oc2c(oc(CO)cc2=O)C1c1c(F)cccc1Cl (stereo not drawn)
→ -14.3% | -13.7%
> COCCCN1C(=O)c2ccc(C(=O)N3CCN(c4ccc(OC)cc4)CC3)cc2C1=O
→ -15.8% | 0.6%
> Cc1ccc(S(=O)(=O)N2CCC(C(=O)N/N=C/c3cccnc3)CC2)cc1
→ -0.2% | -3.1%
> Cc1ccc2onc(CNC(=O)NCc3ccc(Cl)cc3)c2c1
→ -2.9% | -6.7%
> O=c1cc(N=Nc2ccc(Cl)cc2)[nH]c(=O)[nH]1
→ -2.4% | -16.1%
> COc1cccc(C(=O)C2CCCN(C(=O)CCC3=NNC(=O)CC3)C2)c1 (stereo not drawn)
→ -28.5% | -18.6%
> O=C1CC(Sc2ncccn2)C(=O)N1c1ccccc1 (stereo not drawn)
→ -8.8% | -0.3%
> CN1C(=O)NC(=O)/C(=C/c2ccc([N+](=O)[O-])o2)C1=O
→ 30.1%[activator] | 88.0%[activator]
> Cc1ccc(C(CNS(=O)(=O)c2ccc(F)cc2C)N2CCN(C)CC2)cc1 (stereo not drawn)
→ i | -17.9%
> CC1(CC(=O)N/N=C/c2cc3c(cc2Br)OCO3)OCCO1
→ 8.1% | 11.8%
> COc1cc(C(=O)NCCN2CCCC2)cc(OC)c1OC
→ / | -10.0%
> CC(C)CCNC(=O)CCCCn1c(=O)[nH]c2ccsc2c1=O
→ -3.5% | 2.9%
> COc1ccc(COc2ccccc2C(=O)Nc2ccccn2)cc1[N+](=O)[O-]
→ -8.0% | -9.7%
> C[C@@H]1C(=O)O[C@H](C)[C@H]1C[C@@H](O)[C@](C)(O)C1CC[C@@]2(O)C3=CC(=O)[C@@H]4C[C@@H](O)[C@@H](O)C[C@]4(C)C3CC[C@]12C (stereo partly drawn)
→ 6.7% | -1.1%
> Cc1ccc(-c2nnc(SCC(=O)N3CCc4ccccc43)o2)cc1
→ -12.8% | -10.8%
> Nc1ccc(-c2nc3ccc(N)cc3o2)cc1
→ 14.5% | -5.3%
> O=C(NC(NCCCN1CCOCC1)(C(F)(F)F)C(F)(F)F)C1CCCCC1
→ / | -4.9%
> CCCCOC(=O)C1[C@H]2C(=O)N(c3ccccc3CC)C[C@]23C=C[C@H]1O3 (stereo partly drawn)
→ / | 6.1%
> CCC(C)(C)NC(=O)C(C(C)C)N(CC1CCCO1)C(=O)CNS(=O)(=O)c1ccccc1 (stereo not drawn)
→ -9.7% | -10.9%
> Cc1ccc(NC(=O)CSc2nnnn2-c2cccnc2)c(C)c1
→ i | -7.1%
> COc1ccc(C(=O)Nc2ccc3c(c2)OCO3)cc1S(=O)(=O)N1CCOCC1
→ i | -3.2%
> Cc1cc(C)n2ncc(C(=O)NCc3cccnc3)c2n1
→ / | 3.0%
> O=C1OC(CN2CCOCC2)CN1N=Cc1ccc([N+](=O)[O-])o1 (stereo not drawn)
→ -16.3% | -14.7%
> O=C(c1[nH]c(C(F)(F)F)nc1-c1ccccc1)N1CCC(Cc2ccccc2)CC1
→ -7.2% | -0.2%
> CCOC(=O)C1(Cc2ccccc2)CCN(Cc2cnn(C(C)C)c2)CC1
→ -16.3% | -14.2%
> Cc1ccccc1C(=O)c1c[nH]c(C(=O)NCCc2ccccn2)c1
→ i | -14.8%
> O=C(O)CC(CC(=O)O)c1ccsc1
→ i | -15.3%
> COc1cc(C(=O)Nc2ccc3c(c2)C(=O)N(CCC(=O)O)C3=O)cc(OC)c1OC
→ / | 3.9%
> CN(C1CCS(=O)(=O)C1)S(=O)(=O)c1ccccc1 (stereo not drawn)
→ i | -6.7%
> COc1c(C)cc(S(=O)(=O)NCCN2CCOCC2)c(C)c1C
→ 0.0% | -2.2%
> COc1ccc(S(=O)(=O)Nc2cc3c(cc2NCc2ccccc2)n(C)c(=O)n3C)cc1OC
→ i | -8.7%
> O=C(O)c1cc(NCc2ccccc2)ccc1N1CCOCC1
→ / | -4.6%
> Cc1cccc(N(C)C(=O)CN(C)S(=O)(=O)c2ccc3[nH]c4c(c3c2)CCCC4)c1
→ -20.0% | -16.2%
> Cc1nc(-n2nc(C)c(Cc3ccccc3Cl)c2C)sc1C(=O)N1CCC(C)CC1
→ -16.2% | -9.9%
> Cc1nn(C)cc1/C=N/NC(=O)c1ccco1
→ -12.6% | 6.2%

# New compounds follow
# Order of values: VACV mCherry inh | VACV Venus inh
> COC(=O)c1ccc(N2C(=O)CC(N3CCOCC3)C2=O)cc1 (stereo not drawn)
→ / | -20.6%
> CC(=O)c1ccc(NC(=S)N(C)C2CCN(C)CC2)cc1
→ i | -8.6%
> CC(C)N(C)c1ncnc2c1ncn2[C@H]1CN(Cc2ccc(-c3ccccc3)cc2)C[C@@H](CO)O1
→ i | -5.9%
> Cc1ccc(CNCC(=O)Nc2ccc(C)cc2Br)cc1
→ -16.4% | -10.0%
> Cc1ccc(/C=N/NC(=O)c2c[nH]c3ccccc23)s1
→ ? | ?
> O=C(N/N=C\c1c(F)c(F)c(F)c(F)c1F)c1ccc(-c2ccccc2)cc1
→ -19.7% | -2.5%
> COc1cccc(NC(=O)c2sc3nc(C)c(C(=O)Nc4ccc(C)cc4C)c(-c4sccc4C)c3c2N)c1
→ -6.9%[7.34 µM] | -9.2%[7.34 µM]
> N#CC1(Cc2ccc(Cl)cc2)c2ccccc2C=CN1C(=O)c1ccccc1 (stereo not drawn)
→ -15.2% | -14.7%
> CCc1cc(=O)[nH]c(SCC(=O)N2CCCC2)n1
→ -18.7% | -1.9%
> CCCC[C@@H](C=O)NC(=O)[C@H](CC(C)C)NC(=O)[C@H](CC(C)C)NC(C)=O
→ -12.1%[60.7 µM] | -0.1%[60.7 µM]
> Nn1c(Cc2cccc3ccccc23)nnc1SCc1ccccc1Cl
→ -20.9% | -11.5%
> CC1(C(=O)Nc2ccc(Cl)c(Cl)c2)CCN1C(=O)CC(c1ccccc1)c1ccccc1 (stereo not drawn)
→ i | 0.1%
> COc1ccc([C@H]2[C@H](C(=O)C(C)(C)C)N3N=Cc4ccccc4C3C23C(=O)OC(C)(C)OC3=O)cc1 (stereo partly drawn)
→ i | -4.6%
> CSc1ccc(CN(C)CC(=O)Nc2c(F)cccc2F)cc1
→ i | -6.9%
> CCc1c(C)nc(N)nc1Cl
→ i | -1.9%

# Later entries
SMILES,VACV mCherry inh,VACV Venus inh
CC(=O)c1cc(CN2CCN(C3CCCCC3)C(CCO)C2)cs1 (stereo not drawn),i,-12.7%
CCC(C(=O)NC(C)(C)C)n1c(-c2ccccc2)nc2ccccc21 (stereo not drawn),-9.3%,-3.6%
CCOC(=O)c1sc2nc(CSc3ccccc3Cl)[nH]c(=O)c2c1C,i,-2.5%
O=C(CNC(=O)c1ccco1)N=Nc1c(O)[nH]c2ccc([N+](=O)[O-])cc12,-5.8%,1.6%
CCCNC(=O)Cc1c(C)n(C(=O)c2ccc(Cl)cc2)c2ccc(OC)cc12,i,-23.9%
O=C(Nc1ccncc1)c1ccc2c(c1)C(=O)N(C1CCCCC1)C2=O,?,?
O=C(NCc1ccc(F)cc1)c1ccc(Cn2c(SCc3ccc(F)cc3)nc3cccnc32)cc1,-9.8%,-20.8%
COc1ccccc1NC(=O)Cn1c(CN2CCCCC2)nc2ccccc2c1=O,-13.8%,-7.1%
Nc1ccc(Oc2ccc3c(c2)C(=O)N(CC2CCCO2)C3=O)cc1 (stereo not drawn),i,-13.1%
COc1ccnc(N2CCN(c3ccccc3)CC2)c1C#N,-2.7%,-3.5%

# Profiles as entered above. Order of screens: VACV mCherry inh	VACV Venus inh
# Results for `O=c1cc(-c2ccccc2)nc(Sc2ccc([N+](=O)[O-])cc2[N+](=O)[O-])[nH]1` : -16.6%	-4.1%
# Results for `COc1cc(C(=O)Nc2ccc3c(c2)C(=O)N(CCC(=O)O)C3=O)cc(OC)c1OC` : /	3.9%
# Results for `CCCNC(=O)Cc1c(C)n(C(=O)c2ccc(Cl)cc2)c2ccc(OC)cc12` : i	-23.9%

# Later entries.
SMILES,VACV mCherry inh,VACV Venus inh
Cc1ccc(C)c(OC2=NS(=O)(=O)c3ccccc32)c1,-7.2%,5.4%
O=C(NCc1nc2ccccc2[nH]1)C1=C[C@@H](C2CCCCC2)C[C@@H](OCc2ccc(CO)cc2)O1,-2.8%,?
COc1cc2nc(CC(O)c3nc4cc(OC)c(OC)cc4[nH]3)[nH]c2cc1OC (stereo not drawn),-3.2%,-21.8%
O=c1[nH]c(=S)[nH]c2c1[C@H](CCc1cccc(Cl)c1)O[C@H](C1CCCC1)C2,11.0%,-11.7%
CC(=O)c1ccc(NC(=O)CSc2nccn2C2CCCC2)cc1,-11.5%,-6.4%
COc1ccc2oc(C(=O)NC3(C)CCS(=O)(=O)C3)c(C)c2c1 (stereo not drawn),-15.6%,-4.8%
COc1ccc2[nH]cc(CCNC(=O)c3ccc4ccccc4n3)c2c1,-12.3%,-11.8%
CCOC(=O)c1c(NC(=O)c2ccc(S(=O)(=O)N3CCC(C)CC3)cc2)sc2c1CCN(CC)C2,-29.2%,?
Cc1ccc(/C=N/NC(=O)CCCOc2ccc(Cl)cc2Cl)cc1[N+](=O)[O-],-24.9%,?
CC(C)(O)c1[nH]c2cc(F)ccc2c1C(C)(C)O,-1.1%,-6.8%
O=c1oc(-c2cccs2)nc2sc3c(c12)CCCC3,i,-7.1%
CC(C)CCNS(=O)(=O)c1ccc(-c2ccc(S(=O)(=O)NCCC(C)C)cc2)cc1,-3.8%,-18.3%
C=C1C=C(C)n2ncc(C(=O)Nc3ccc(NC(C)=O)c(Cl)c3)c2N1,-16.2%,-11.1%
CC(C)CN(C(=O)CSc1nc2ccccc2o1)c1c(N)n(Cc2ccccc2)c(=O)[nH]c1=O,-20.1%,-14.0%
c1ccc(-c2nnc(SCc3cn4ccsc4n3)o2)cc1,i,-3.6%
O=C(Nc1cccnc1)c1ccccc1F,i,-11.1%
O=C(CC1CC2CCC1C2)N1CCN(S(=O)(=O)c2ccc(C(F)(F)F)cc2)CC1 (stereo not drawn),-25.5%,-10.0%
Cn1c(=O)c2c(nc(CN3CCc4ccccc4C3)n2Cc2cccc(Cl)c2)n(C)c1=O,-28.5%,-29.5%
COc1cccc(NC(=S)NC(=O)Cc2ccc(Cl)cc2)c1,-28.7%,-17.5%
